MLL AF4-AF9 inh: inhibitors of human MLL-AF4/AF9 interaction. inhibition, % at 10 µM. P42568. AlphaScreen, biotin-AF4 peptide binding to FLAG-AF9. AID 651704. 350,000 tested, 0.47% active;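 active means every replicate reaching a set inhibition limit, whatever the replicate mean, cut at about 25% in these data; inconclusive means mean inhibition reaches that limit but some replicates miss it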;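 further: 0% = plate neutral control median and 100% = total signal loss; the record names both 10 and 1 µM as test concentration; the first replicate is given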
Target sequence (P42568 whole entry, looked up): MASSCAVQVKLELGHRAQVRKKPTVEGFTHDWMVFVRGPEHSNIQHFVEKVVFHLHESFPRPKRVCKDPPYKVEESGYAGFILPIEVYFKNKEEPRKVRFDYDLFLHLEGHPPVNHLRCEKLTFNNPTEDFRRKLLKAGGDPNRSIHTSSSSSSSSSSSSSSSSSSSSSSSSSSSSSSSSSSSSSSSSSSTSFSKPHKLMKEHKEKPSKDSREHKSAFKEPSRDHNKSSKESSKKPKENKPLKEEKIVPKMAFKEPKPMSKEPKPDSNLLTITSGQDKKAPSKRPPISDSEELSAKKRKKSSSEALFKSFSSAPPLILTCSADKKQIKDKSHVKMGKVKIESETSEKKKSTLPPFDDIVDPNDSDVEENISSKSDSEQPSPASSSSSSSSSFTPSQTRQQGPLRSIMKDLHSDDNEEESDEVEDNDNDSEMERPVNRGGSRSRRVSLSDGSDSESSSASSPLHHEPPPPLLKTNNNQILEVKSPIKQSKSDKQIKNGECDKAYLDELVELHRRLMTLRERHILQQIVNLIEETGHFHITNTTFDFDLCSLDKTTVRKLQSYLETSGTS
FGF22 binding: FGF22 (human) thermal shift binding; calls only at 9.99 µM; recombinant FGF22 thermal shift, SYPRO orange fluorescence; percent of sucrose octasulfate shift, DMSO zero; Q9HCT0; 340,000 tested, 1.5% active;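 active means melting point raised past a set limit in the mean and every replicate; inconclusive means no clear call; three in four hits are not shown here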
Target sequence (Q9HCT0 whole entry, looked up): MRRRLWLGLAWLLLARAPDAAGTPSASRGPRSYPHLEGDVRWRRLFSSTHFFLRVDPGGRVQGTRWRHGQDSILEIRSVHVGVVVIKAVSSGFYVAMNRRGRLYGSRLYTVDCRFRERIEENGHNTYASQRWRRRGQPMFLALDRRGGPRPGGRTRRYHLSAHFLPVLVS
Active calls of the source: *; i = inactive; u = inconclusive; x = not tested or not shown. Only part of the results is shown, so the mix of outcomes need not match the whole.

Sequence of screens: MLL AF4-AF9 inh, FGF22 binding
- C[C@H](CO)N1C[C@H](C)[C@H](CN(C)S(=O)(=O)c2ccc(C#N)cc2)Oc2ncc(-c3cc4ccccc4o3)cc2C1=O
 : 3.4, i
- C[C@@H]1CCCCO[C@@H](CN(C)S(=O)(=O)c2cn(C)cn2)[C@H](C)CN([C@@H](C)CO)C(=O)c2cc(NC(=O)Nc3cccc4ccccc34)ccc2O1
 : 5.4, i
- C[C@@H]1CCCCO[C@H](CN(C)C)[C@H](C)CN([C@@H](C)CO)C(=O)c2cc(NS(=O)(=O)c3cn(C)cn3)ccc2O1
 : -24, i
- Cc1ccc(S(=O)(=O)N(C)C[C@@H]2Oc3ccc(NS(C)(=O)=O)cc3C(=O)N([C@@H](C)CO)C[C@@H]2C)cc1
 : -0.8, i
- C[C@H]1CN([C@@H](C)CO)C(=O)c2cc(NC(=O)c3ccncc3)ccc2O[C@@H]1CN(C)Cc1ccc2c(c1)OCO2
 : -1.9, i
- C[C@H](CO)N1C[C@H](C)[C@H](CN(C)S(C)(=O)=O)Oc2ccc(NS(C)(=O)=O)cc2CC1=O
 : -2.9, i
- C[C@@H]1CCCCO[C@@H](CN(C)C(=O)NC2CCCCC2)[C@@H](C)CN([C@@H](C)CO)C(=O)c2cc(NC(=O)Nc3ccc(C(F)(F)F)cc3)ccc2O1
 : -0.6, i
- CN1c2ccc(-c3cccc(C#N)c3)cc2[C@H]2[C@H](CCN2S(=O)(=O)c2ccccc2F)[C@@H]1CO
 : -3.3, i
- C[C@H](CO)N1C[C@H](C)[C@@H](CN(C)S(=O)(=O)c2ccc(Cl)cc2)Oc2c(NC(=O)Nc3ccc(C(F)(F)F)cc3)cccc2C1=O
 : 2.3, i
- O=C(C1CCCC1)N1CCCCN2[C@H](CO)[C@H](c3ccc(C#CC4CC4)cc3)[C@H]2C1
 : 2.4, i
- C[C@H](CO)N1C[C@H](C)[C@H](CN(C)C(=O)Nc2ccc(F)cc2)Oc2c(NS(=O)(=O)c3ccccc3)cccc2C1=O
 : 0.7, i
- C[C@H]1CN([C@@H](C)CO)C(=O)Cc2cc(NC(=O)NC3CCCCC3)ccc2O[C@H]1CN(C)Cc1ccc(C(=O)O)cc1
 : 0.5, i
- N#C[C@H]1[C@H](c2ccc(C#CC3CCCCC3)cc2)[C@H](CO)N1C(=O)Cc1ccccn1
 : 2.7, i
- Cc1ccccc1NC(=O)Nc1ccc2c(c1)C(=O)N(C)[C@H]1CC[C@@H](CC(=O)NCC3CC3)O[C@@H]1CO2
 : -0.2, i
- CCNC(=O)C[C@@H]1CC[C@@H]2[C@H](COc3ccc(NC(=O)c4ccc(C(F)(F)F)cc4)cc3C(=O)N2C)O1
 : -2.6, i
- COc1ccc(S(=O)(=O)N(C)C[C@@H]2Oc3ccc(NC(=O)CCCCCC(=O)Nc4ccccc4N)cc3C(=O)N([C@H](C)CO)C[C@@H]2C)cc1
 : -2.2, i
- COCC(=O)N1[C@H](CO)[C@@H]2c3ccccc3N(C(=O)c3cccc(OC)c3)C[C@@H]21
 : -14, i
- O=C(c1ccncc1)N1C[C@H]2[C@@H](c3ccccc31)[C@H](CO)N2C(=O)c1ccncc1
 : -0.3, i
- C[C@@H]1CN([C@H](C)CO)C(=O)Cc2cc(NS(=O)(=O)c3ccc(F)cc3)ccc2O[C@@H]1CN(C)Cc1ccccc1
 : -17, i
- COc1cccc(CNC(=O)[C@H]2CCCN2C(=O)[C@H]2CCCN2C(=O)c2ccccc2)c1
 : -9.8, i
- C[C@H](CO)N1C[C@H](C)[C@H](CN(C)CC2CC2)Oc2ccc(NC(=O)CCN3CCOCC3)cc2CC1=O
 : -2.1, i
- COc1ccc(NC(=O)Nc2ccc3c(c2)C(=O)N([C@@H](C)CO)C[C@@H](C)[C@H](CN(C)C(=O)Nc2ccc4c(c2)OCO4)OCCCC[C@@H](C)O3)cc1
 : -1.1, i
- C[C@@H]1CN([C@@H](C)CO)C(=O)CCCn2nncc2CO[C@@H]1CN(C)Cc1ccc2c(c1)OCO2
 : -0.2, i
- N#C[C@@H]1[C@@H](c2ccc(C#Cc3cccnc3)cc2)[C@@H](CO)N1C(=O)C1CC1
 : -8.9, i
- O=C(NC1CCCCC1)N[C@H]1CC[C@H](CCNS(=O)(=O)c2ccc(Cl)cc2)O[C@@H]1CO
 : 1.0, i
- C[C@@H]1CN([C@H](C)CO)C(=O)c2cc(NC(=O)c3ccccc3)ccc2O[C@@H](C)CCCCO[C@H]1CN(C)S(=O)(=O)c1cn(C)cn1
 : -0.6, i
- CNC[C@@H]1[C@H](c2ccccc2)[C@H](CO)N1C(=O)Nc1cccc(OC)c1
 : 0.9, i
- COc1ccc(NC(=O)N(C)C[C@H]2Oc3ccc(NC(=O)Cc4cn(C)c5ccccc45)cc3C(=O)N([C@H](C)CO)C[C@H]2C)cc1
 : 2.2, i
- CC(C)CC#Cc1ccc2c(c1)O[C@H](CN(C)CC1CCOCC1)[C@H](C)CN([C@H](C)CO)S2(=O)=O
 : 1.4, i
- C[C@@H]1CN([C@@H](C)CO)C(=O)Cc2cc(NS(=O)(=O)c3cn(C)cn3)ccc2O[C@H]1CN(C)C(=O)Nc1ccc(F)cc1
 : -2.6, i
- COc1cccc(CNC(=O)C[C@H]2CC[C@@H](NC(=O)C3CC3)[C@H](CO)O2)c1
 : -0.2, i
- C[C@H](CO)N1C[C@H](C)[C@H](CN(C)C(=O)Cc2cccnc2)Oc2ncc(-c3ccncc3)cc2C1=O
 : -3.3, i
- COc1ccc(S(=O)(=O)N2C[C@@H](O)COC[C@@H]3O[C@H](CC(=O)N(C)C)CC[C@H]32)cc1
 : -3.3, i
- C[C@@H]1CN([C@@H](C)CO)C(=O)c2cc(C#CC3CCCCC3)cnc2O[C@@H]1CN(C)C(=O)c1ccncc1
 : -0.9, i
- C[C@H]1CN([C@@H](C)CO)C(=O)c2cc(NS(=O)(=O)c3cccs3)ccc2O[C@H]1CN(C)S(=O)(=O)c1ccc(Cl)cc1
 : -2.6, i
- C[C@H]1CN([C@@H](C)CO)S(=O)(=O)c2ccc(C#Cc3ccccc3)cc2O[C@H]1CN(C)S(C)(=O)=O
 : -0.2, i
- CCCC(=O)Nc1ccc2c(c1)C(=O)N(C)[C@@H]1CC[C@@H](CC(=O)NCc3ccccc3)O[C@@H]1CO2
 : 0.3, i
- COc1ccc(S(=O)(=O)Nc2cccc3c2O[C@@H](CN(C)C(=O)NC(C)C)[C@@H](C)CN([C@@H](C)CO)C3=O)cc1
 : -1.8, i
- COCC#Cc1cnc2c(c1)C(=O)N([C@H](C)CO)C[C@H](C)[C@@H](CN(C)C(C)=O)O2
 : -14, i
- CC(C)C(=O)Nc1ccc2c(c1)C(=O)N(C)[C@@H]1CC[C@H](CC(=O)NCc3ccc(F)cc3)O[C@@H]1CO2
 : -1.0, i
- O=C1NC(Cc2ccc(O)cc2)c2nc3cc(F)ccc3c(=O)n2-c2cc(Cl)ccc21 (configuration not stated)
 : 6.7, i
- CCCC#Cc1ccc([C@@H]2[C@@H](CO)N3CCCCN(S(=O)(=O)CC)C[C@@H]23)cc1
 : -1.2, i
- C[C@H]1CN([C@@H](C)CO)C(=O)c2c(c3ccccc3n2C)-c2ccccc2CO[C@H]1CN(C)C(=O)[C@H]1CCCN1C
 : 3.0, i
- C[C@@H]1CN([C@H](C)CO)C(=O)c2cc(NC(=O)Nc3cccc4ccccc34)ccc2O[C@H]1CN(C)Cc1ccc(C(=O)O)cc1
 : 0.2, i
- Cc1ccc(S(=O)(=O)Nc2ccc3c(c2)C(=O)N([C@@H](C)CO)C[C@H](C)[C@H](CN(C)C(=O)Nc2c(C)noc2C)OCCCC[C@H](C)O3)cc1
 : -0.3, i
- CC(C)N(C[C@@H]1[C@@H](c2ccccc2)[C@H](CO)N1S(C)(=O)=O)C(=O)CN(C)C
 : -1.2, i
- CC(C)CC#Cc1ccc([C@@H]2[C@@H](CO)N3CCCCN(S(=O)(=O)Cc4ccccc4)C[C@@H]23)cc1
 : 1.7, i
- C[C@@H]1CCCCO[C@H](CN(C)S(=O)(=O)c2ccc(F)cc2)[C@@H](C)CN([C@H](C)CO)C(=O)c2cc(NS(=O)(=O)c3cccs3)ccc2O1
 : -3.2, i
- O=C(C[C@H]1CC[C@H]2[C@@H](COC[C@H](O)CN2Cc2ccccc2F)O1)NCc1ccccc1F
 : 0.3, i
- C[C@H]1CN([C@@H](C)CO)S(=O)(=O)c2ccc(C3=CCCC3)cc2O[C@@H]1CN(C)C(=O)CC1CC1
 : -2.4, i
- COc1ccccc1C#Cc1ccc([C@H]2[C@H](C#N)N(C(=O)C3CCC3)[C@H]2CO)cc1
 : -0.6, i
- C[C@@H]1CN([C@@H](C)CO)C(=O)c2cccc(NS(=O)(=O)c3ccccc3)c2O[C@@H]1CN(C)Cc1ccc(C(F)(F)F)cc1
 : 3.4, i
- O=C(C[C@H]1CC[C@H]2[C@@H](COC[C@@H](O)CN2C(=O)c2ccc3c(c2)OCO3)O1)NC1CCC1
 : -0.5, i
- C[C@H](CO)N1C[C@H](C)[C@@H](CN(C)Cc2ccc(Oc3ccccc3)cc2)Oc2c(NC(=O)c3ccc(-c4nccs4)cc3)cccc2C1=O
 : -5.4, i
- C[C@@H](NC(=O)[C@H]1[C@H](CO)[C@H]2Cn3c(cccc3=O)[C@@H]1N2C(=O)C1CCC1)c1ccccc1
 : -2.2, i
- C[C@@H]1CN([C@H](C)CO)C(=O)c2cc(NC(=O)Nc3ccccc3)ccc2O[C@@H]1CN(C)CC1CCCCC1
 : 1.2, i
- O=S(=O)(c1ccc(C(F)(F)F)cc1)N1CCCc2nc(-c3ccccc3)ccc21
 : -1.2, x
- O=C(Nc1ccccc1)N[C@H]1CC[C@H](CCNS(=O)(=O)c2ccccc2F)O[C@@H]1CO
 : -0.3, i
- CCCCCCCCN1C(=O)[C@@H](CC(=O)N2CCN(C(=O)c3ccco3)CC2)C[C@@]2(C(=O)OC)C1=C[C@H](C(C)(C)C)O[C@@H]2C
 : 5.8, i
- CCCNC(=O)N1CC[C@H]2[C@@H]1c1cc(C#Cc3ccccc3)ccc1N(C)[C@H]2CO
 : u, i

Other entries:
Sequence of screens: MLL AF4-AF9 inh, FGF22 binding
- Cc1ccc(S(=O)(=O)Nc2ccc3c(c2)C(=O)N([C@@H](C)CO)C[C@H](C)[C@@H](CN(C)S(=O)(=O)c2ccc(F)cc2)O3)cc1
 : -1.6, i
- CC=Cc1ccc2n(c1=O)C[C@H]1[C@H](CO)[C@@H](C(=O)NCc3ccc(F)cc3)[C@@H]2N1CC (mixture of isomers)
 : -34, i
- C[C@H](O)C#Cc1ccc([C@H]2[C@H]3CN(C(=O)c4ccc(F)cc4)CCCCN3[C@H]2CO)cc1
 : -3.8, i
- Cc1ccc(S(=O)(=O)N(C)C[C@H]2Oc3ccc(NC(=O)c4ccncc4)cc3CC(=O)N([C@@H](C)CO)C[C@H]2C)cc1
 : 1.0, i
- C[C@@H]1CN([C@@H](C)CO)C(=O)Cc2cc(N(C)C)ccc2O[C@@H]1CN(C)C(=O)NC1CCCCC1
 : -0.3, i
- C[C@H](CO)N1C[C@H](C)[C@H](CN(C)C(=O)Nc2ccc(F)cc2)Oc2ccc(NC(=O)CCN3CCOCC3)cc2C1=O
 : -1.4, i
- O=C(C[C@@H]1CC[C@@H]2[C@H](COC[C@@H](O)CN2C(=O)Nc2cccc(Cl)c2)O1)NCCCN1CCOCC1
 : -2.5, i
- C[C@@H]1CN([C@@H](C)CO)C(=O)c2cc(NC(=O)C3CCCCC3)ccc2O[C@@H](C)CCCCO[C@H]1CN(C)C(=O)Nc1cccc2ccccc12
 : -3.9, i
- Cc1ccc(S(=O)(=O)N(C)C[C@H]2Oc3ccc(NC(=O)Nc4c(C)noc4C)cc3C(=O)N([C@H](C)CO)C[C@H]2C)cc1
 : -17, i
- COc1ccc(CNC(=O)C[C@@H]2C[C@@H]3c4cc(NC(=O)NC5CCCC5)ccc4O[C@@H]3[C@@H](CO)O2)cc1
 : -2.2, i
- C[C@@H]1CN([C@@H](C)CO)C(=O)Cc2cc(NS(=O)(=O)c3cccs3)ccc2O[C@H]1CN(C)S(C)(=O)=O
 : -1.6, i
- CNC[C@@H]1OCCCC[C@H](C)Oc2ccc(NC(=O)Nc3ccc(OC)cc3)cc2C(=O)N([C@@H](C)CO)C[C@@H]1C
 : 0.4, i
- C[C@H](CO)N1C[C@H](C)[C@H](CN(C)C(=O)CN2CCOCC2)Oc2ncc(C3=CCCC3)cc2C1=O
 : -1.5, i
- C[C@H](CO)N1C[C@H](C)[C@H](CN(C)S(=O)(=O)c2cccs2)Oc2ccc(NC(=O)C3CCCCC3)cc2CC1=O
 : 0.5, i
- CC(C)NC(=O)Nc1cccc2c1O[C@H](CN(C)S(C)(=O)=O)[C@H](C)CN([C@@H](C)CO)C2=O
 : -0.9, i
- CO[C@@H]1CN(C)C(=O)c2ccc(NC(C)=O)cc2OC[C@H](C)N(Cc2ccncc2)C[C@H]1C
 : -0.3, i

A stretch from the list above:
Sequence of screens: MLL AF4-AF9 inh, FGF22 binding
- Cc1ccc(S(=O)(=O)Nc2ccc3c(c2)C(=O)N([C@@H](C)CO)C[C@H](C)[C@@H](CN(C)S(=O)(=O)c2ccc(F)cc2)O3)cc1
 : -1.6, i
- CC=Cc1ccc2n(c1=O)C[C@H]1[C@H](CO)[C@@H](C(=O)NCc3ccc(F)cc3)[C@@H]2N1CC (mixture of isomers)
 : -34, i
- C[C@H](O)C#Cc1ccc([C@H]2[C@H]3CN(C(=O)c4ccc(F)cc4)CCCCN3[C@H]2CO)cc1
 : -3.8, i

Two of these compounds in another layout.
SMILES | MLL AF4-AF9 inh | FGF22 binding
O=C(C[C@@H]1CC[C@@H]2[C@H](COC[C@@H](O)CN2C(=O)Nc2cccc(Cl)c2)O1)NCCCN1CCOCC1 | -2.5 | i
C[C@@H]1CN([C@@H](C)CO)C(=O)c2cc(NC(=O)C3CCCCC3)ccc2O[C@@H](C)CCCCO[C@H]1CN(C)C(=O)Nc1cccc2ccccc12 | -3.9 | i

Screening results deposited in PubChem BioAssay by Broad Institute.
